Compound activity deposited in PubChem by National Center for Advancing Translational Sciences (NCATS).
Rango dissoc inh – qHTS Assay for Inhibitors of RanGTP induced Rango (Ran-regulated importin-beta cargo) - Importin beta complex dissociation. Biochemical FRET Rango-importin beta, RanGTP-induced dissociation. Snurportin-1 (Homo sapiens) + GTP-binding nuclear protein Ran (Homo sapiens) + Importin …. Potency, µM (top dose mostly 46.1 µM), for inactives: at the highest dose activity change, negative = inhibition. 340,000 tested, 0.071% active; active means falling FRET ratio curve, often poorly fitted, with flat reads before Ran was added; inconclusive means other falling curves, or compound fluorescence or quenching; inactive means flat or rising ratio curve;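 further: potency means the concentration at half of the fitted maximal effect; % of control where 0% means no effect; nearly all actives have a fitted effect of over 45% in size; -100% = wells without RanGTP and RCC1; the record marks most hits as doubtful in a second field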
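Compounds sat 5 min at room temperature with 0.1 uM Rango biosensor plus 0.25 uM importin beta, then FRET pre-read. RanGTP-RCC1 (0.6 uM Ran, 2mM GTP, 0.2 uM RCC1) added for 45 min, and the CFP/YFP post-read measured blocked complex dissociation.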
GLA inh pH 4.5 – qHTS Assay for Inhibitors of Human alpha-Galactosidase at pH 4.5; Alpha-galactosidase A (Homo sapiens), P06280; purified enzyme, 4-MU-alpha-Gal fluorescence, pH 4.5; activity change, negative = inhibition, % at 105 µM; 230,000 tested, under 10 active; AID 1467, 2008; inconclusive = small, poorly fitted or top-dose-only inhibition, or a rising curve; inactive = flat fitted curve, though single readings scatter; no compound was filed as active;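 further: 0% = full activity with enzyme and -100% = basal without enzyme; dose as in the result columns while the protocol names 77 µM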
Target sequence (P06280 whole entry, looked up): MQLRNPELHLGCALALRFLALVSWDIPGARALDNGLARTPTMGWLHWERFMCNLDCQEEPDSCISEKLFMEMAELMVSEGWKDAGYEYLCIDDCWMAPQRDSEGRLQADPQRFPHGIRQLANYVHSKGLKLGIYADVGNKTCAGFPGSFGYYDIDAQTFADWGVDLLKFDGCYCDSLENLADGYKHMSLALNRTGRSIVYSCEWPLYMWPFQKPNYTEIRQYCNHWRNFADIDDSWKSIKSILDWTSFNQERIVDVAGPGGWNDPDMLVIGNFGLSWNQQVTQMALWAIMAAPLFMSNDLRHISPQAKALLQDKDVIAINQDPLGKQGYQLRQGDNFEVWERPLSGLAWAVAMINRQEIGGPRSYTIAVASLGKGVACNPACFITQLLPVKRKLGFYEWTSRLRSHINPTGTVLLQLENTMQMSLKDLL
Rango complex inh – qHTS Assay for Inhibitors of Rango (Ran-regulated importin-beta cargo) - Importin beta complex formation; Potency, µM (series often up to 92.2 µM), inactives show at the top dose inhibition of complex formation; AID 540263, 2011; Rango CFP/YFP FRET sensor + importin beta, 45 min; 340,000 tested, 0.031% active; Importin subunit beta-1 (Homo sapiens), Q14974; active = rising FRET ratio curve, often small or poorly fitted; inconclusive = mostly compound fluorescence or quenching in the first reads; inactive = flat curves in all reads;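 further: potency means the concentration at half of the fitted maximal effect; 0% = DMSO wells and 100% = buffer wells lacking importin beta; nearly all actives have a fitted effect of over 15% in size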
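Inhibition scored from the CFP 486 nm/YFP 530 nm FRET ratio 45 min after adding 0.125 microM importin beta to 50 nM Rango biosensor preincubated 5 min with compound (room temperature, PBS with DTT, Tween-20, BSA). No-importin wells as positive control.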
miR-21 reporter – qHTS Assay for Modulators of miRNAs and/orActivators of miR-21; HeLa miR-21 FLuc reporter, luciferase, 48 h; 340,000 tested, under 10 active; Potency, µM (highest dose often 38.3 µM), inactives show at the highest dose reporter change, positive = more light; AID 2288, 2010; active = well fitted rising curve with a large enough effect; inconclusive = small, poorly fitted or top-dose-only effect; inactive = no such curve, though single readings can be large or run the other way;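 further: % of control where 0% means no effect; miR-21 action dims this reporter so a rising signal means less miR-21 action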
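Using DMEM plus 10% FBS, HeLa miR-21-FLuc cells are incubated with test compounds (final up to about 40uM) for 48 hours; firefly luciferase signal is then imaged following reagent-mediated lysis.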
* hit, by the source's call; u = inconclusive; x = not tested or not shown; & = joins results of further samples.

Values in the order: Rango dissoc inh	GLA inh pH 4.5	Rango complex inh	miR-21 reporter
1) COc1ccccc1NS(=O)(=O)c1ccc(C)c(C(=O)NCC(c2ccco2)N(C)C)c1 (stereo unspecified)
 : -1%	x	3.2%	x
2) S=C(S)OC1CC2CC1C1CCCC21 (stereo unspecified)
 : 11%	-1	-2.5%	x
3) Brc1ccc2c(c1)C(c1ccc(N3CCOCC3)cc1)=NNC(c1cccs1)=N2
 : 23%	-7	5.9%	-6%
4) Cc1c(CCOC(=O)C23CC4CC(CC(C)(C4)C2)C3)sc[n+]1CC(=O)c1ccccc1
 : 6%	-21	-2.6%	10%
5) COc1ccc(NC(=O)c2cccc(S(=O)(=O)N3CCCCC3)c2)c(OC)c1
 : 11%	x	-0.8%	3%
6) COc1ccc(C2CC(C(F)(F)F)n3nc(C(=O)NCCN4CCOCC4)cc3N2)cc1 (stereo unspecified)
 : 11%	8	0.6%	-4%
7) COc1cc(-c2[nH]ncc2CN2CCCC2c2nonc2C)cc(OC)c1OC (stereo unspecified)
 : 6%	-3	0.4%	-1%
8) COc1ccc(C(C#N)N2N=C(C)CC2(C)C)cc1 (stereo unspecified)
 : 0%	6	-1.0%	-3%
9) N/C(CN1CCCCC1)=N\S(=O)(=O)c1cc(Cl)cc(Cl)c1
 : -6%	2	0.3%	-7%
10) CC(C)(C)c1ccc(C(=O)Nc2cccc3c(=O)[nH][nH]c(=O)c23)cc1
 : u	-4	u	19%
11) CCNc1oc(COc2cccc(C)c2)nc1C#N
 : -9%	-1	-2.4%	-56%
12) CCCOc1ccc(/C=N/NC(=O)C(C)Sc2ccccn2)cc1OCC (stereo unspecified)
 : -3%	-1	-0.1%	-6%
13) COc1ccccc1N1CCN(C(C)C(=O)N2CC(C)OC(C)C2)CC1 (stereo unspecified)
 : -8%	1	5.3%	-3%
14) c1coc(CNc2nc(-c3ccncc3)cs2)c1
 : -2%	-1	6.0%	-40%
15) CCc1noc(C)c1C(=O)N1CCOCC1
 : -14%	-4	-2.5%	-2%
16) COCCn1nnnc1CN(Cc1cc2cc(OC)c(OC)cc2[nH]c1=O)C1CCCC1
 : u	12	u	-11%
17) CCN(CC(=O)Nc1ccc2c(c1)OCCO2)C(=O)CCc1ccccc1Cl
 : -5%	x	-2.2%	x
18) CSCCC(NC(=O)COc1ccccc1)C(=O)N(C)CC(=O)Nc1ccc(C)cc1 (stereo unspecified)
 : -5%	x	-2.6%	x
19) Cc1cccc(CC(=O)Nc2cc(=O)n(C)c(=O)n2C)c1
 : -24%	5	-4.4%	-1%
20) Cc1cccc(C(C)C)c1NC(=O)COC(=O)C1CC(=O)N(Cc2ccccc2)C1 (stereo unspecified)
 : u	x	2.9%	x
21) Cc1ccc(OCC(=O)N/N=C\c2ccc(O)c([N+](=O)[O-])c2)c([N+](=O)[O-])c1
 : 8%	-18	0.4%	-14%
22) CC(C)(C)NC(=O)C12CCC(C)(c3nc4ccccc4nc31)C2(C)C (stereo unspecified)
 : -8%	5	5.1%	-6%
23) O=C(Nc1ccccc1N1CCCC1)c1ccc([N+](=O)[O-])o1
 : 8%	x	-1.2%	8%
24) Cc1ccc(Oc2ccccc2NC(=O)CSCC(=O)Nc2cc(C)on2)cc1
 : 15%	x	-1.6%	x
25) C[N+]1(C)CC[C@H](OC(=O)[C@@](O)(c2ccccc2)C2CCCC2)C1
 : 1%	x	-4.2%	2%
26) NC(=O)CSc1nc2cc(S(=O)(=O)N3CCOCC3)ccc2o1
 : 7%	x	-0.8%	x
27) COc1ccc(/C=N/NC(=O)C2C3CCCCC32C)cc1OC (stereo unspecified)
 : 1%	-4	u	-22%
28) N#C/C(=C\c1ccco1)C(=O)Nc1ccc(S(N)(=O)=O)cc1
 : -6%	2	-0.1%	1%
29) Cc1ccc(NC(=O)N2CCN(C)CC2)cc1NC(=O)N1CCN(C)CC1
 : 23%	-3	u	-2%
30) Nc1ccc(N=Nc2ccccc2)c2ccccc12
 : 0%	-23	-4.5%	-12%
31) CC(OC(=O)c1cccc(-n2cnnn2)c1)C(=O)c1ccccc1 (stereo unspecified)
 : 5%	x	-0.1%	x
32) Cc1ccc(S(=O)(=O)N/N=C2/CC(c3ccccc3)Oc3ccccc32)cc1[N+](=O)[O-] (stereo unspecified)
 : 16%	-7	0.4%	-40%
33) C(=N/N1CCN(c2ccccc2)CC1)/c1ccncc1
 : 16%	-3	2.6%	-10%
34) O=C1C(C2=NC(C(=O)O)C3C(=O)N(c4ccc(Cl)cc4)C(=O)C23)=C(O)c2ccccc21 (stereo unspecified)
 : -16%	2	-0.5%	-2%
35) CCOc1ccc(OCCC(=O)N(CC(C)C)c2c(N)n(Cc3ccccc3)c(=O)[nH]c2=O)cc1
 : 1%	x	-4.5%	x
36) Cc1cc(C)c(C#N)c(SCC(=O)Nc2ccccc2C(N)=O)n1
 : -26%	0	-4.8%	-29%
37) O=C(NCc1cccs1)C1CCCN(S(=O)(=O)c2cnc[nH]2)C1 (stereo unspecified)
 : 29%	6	-7.1%	-4%
38) CCOC(=O)C1C(=O)Nc2nc(C)nn2C1c1ccccc1 (stereo unspecified)
 : u	3	-3.3%	-3%
39) S=C1NC[C@H](Cc2cccc3ccccc23)N1CC1CCCCC1
 : 17%	-3	3.8%	16%
40) Cc1c(C(=O)N2CCCCC2)nn(-c2ccc(Cl)cc2)c(=O)c1C#N
 : -12%	4	-1.1%	-8%
41) CCN1CCN(CC(O)COc2ccc(C(C)=O)cc2)CC1 (stereo unspecified)
 : 25%	5	-3.0%	-2%
42) CCCCn1c(N)c(N(CCOC)C(=O)c2cc(-c3ccco3)nc3ccccc23)c(=O)[nH]c1=O
 : 8%	x	u	x
43) CC(=O)Nc1nc(NCc2ccccc2Cl)n(-c2ccccc2)n1
 : 1%	x	-4.7%	-2%
44) c1ccc(COc2cccc(CNCc3ccccn3)c2)cc1
 : 0%	1	0.9%	-32%
45) COc1ccc(-c2cnnc(N/N=C/c3ccc(O)cc3)n2)cc1
 : -11%	-21	0.1%	-31%
46) Cc1ccccc1-c1ccccc1N
 : 1%	4	3.5%	6%
47) Cc1ccc(CN2CCN(/N=C/c3ccc(C)s3)CC2)cc1
 : 4%	-8	-2.3%	-6%
48) COC(=O)c1ccc(NC(=O)C2CCCN2S(=O)(=O)c2ccc(OC)cc2)cc1 (stereo unspecified)
 : 5%	-2	1.3%	-8%
49) COc1cc(C2c3c(oc4ccccc4c3=O)C(=O)N2c2ccc(C)cn2)ccc1O (stereo unspecified)
 : 19%	6	8.9%	-10%
50) O=C(NCc1n[nH]c(=S)n1-c1cccc(Cl)c1)c1ccc(S(=O)(=O)N2CCCCC2)cc1
 : -8%	x	-0.9%	-6%
51) COc1cc(CNCCc2ccccc2)cc(Cl)c1OCc1ccccc1
 : 2%	-23	3.5%	u
52) CN(Cc1ccccc1)C(=O)COC(=O)C1CCN(S(=O)(=O)c2cccs2)CC1
 : -8%	2	0.1%	2%
53) CCc1cc2ccccc2nc1SCC(=O)N1CCN(C(=O)c2ccco2)CC1
 : 2%	0	1.4%	-1%
54) CC(C)CCN(CCC(C)C)C(CO)(CO)CO
 : 10%	1	2.4%	-1%
55) CCOC(=O)c1cc2c(=O)n3cccc(C)c3nc2n(CCOC)c1=NC(C)=O
 : u	u	u	-3%
56) C[C@@H](NC(=O)c1nc[nH]c1C(=O)N[C@@H](Cc1ccccc1)C(=O)OCc1ccccc1)c1ccccc1
 : -5%	-10	0.2%	0%
57) O=C(NCCc1ccc(Cl)cc1)C1CC(=O)N(C2CCCC2)C1 (stereo unspecified)
 : -7%	x	-1.0%	-1%
58) O=C(O)CC(c1ccccc1)N1C(=O)c2cccc([N+](=O)[O-])c2C1=O (stereo unspecified)
 : u	x	u	2%
59) O=C(O)/C=C/c1ccc(S(=O)(=O)NCc2cccnc2)cc1
 : u	4	4.2%	-3%
60) CC1CCN(Cc2cc(=O)oc3ccc4ccccc4c23)CC1
 : -3%	-11	-0.2%	-8%

Four of the entries above in order of the Rango dissoc inh value, smallest number first.
Values in the order: Rango dissoc inh	GLA inh pH 4.5	Rango complex inh	miR-21 reporter
45) COc1ccc(-c2cnnc(N/N=C/c3ccc(O)cc3)n2)cc1
 : -11%	-21	0.1%	-31%
51) COc1cc(CNCCc2ccccc2)cc(Cl)c1OCc1ccccc1
 : 2%	-23	3.5%	u
31) CC(OC(=O)c1cccc(-n2cnnn2)c1)C(=O)c1ccccc1 (stereo unspecified)
 : 5%	x	-0.1%	x
33) C(=N/N1CCN(c2ccccc2)CC1)/c1ccncc1
 : 16%	-3	2.6%	-10%

(continued)
Values in the order: Rango dissoc inh	GLA inh pH 4.5	Rango complex inh	miR-21 reporter
61) COCC(=O)Nc1ccc(S(=O)(=O)Nc2nccs2)cc1
 : 11%	x	1.4%	2%
62) COC(=O)c1ccc(CNC(=O)COC(=O)C23CC4CC(CC(C4)C2)C3)cc1
 : 25%	3	-2.1%	-10%
63) COc1ccc2nc(NC(=O)CSc3n[nH]c(N)n3)sc2c1
 : 1%	x	3.7%	x
64) O=c1[nH]nc(Sc2ncnc3sccc23)n1CCc1ccccc1
 : 0%	-4	3.6%	u
65) Cc1ccccc1N1CCN(S(=O)(=O)c2nnc(NC(=O)CC(C)C)s2)CC1
 : 0%	x	6.2%	0%
66) CCN(CC(=O)NCc1cccs1)C(=O)CCC(=O)c1ccc(F)cc1
 : 7%	x	-6.0%	x
67) CC(C)C(=O)Nc1nnc(SCC(=O)NCC2CCCO2)s1 (stereo unspecified)
 : -20%	-1	6.9%	-1%
68) Cc1ccc(NC(=O)O/N=C/c2c(C)nn(C(C)(C)C)c2C)cc1Cl
 : -7%	-6	-0.6%	u
69) N#CC(C#N)=C(Nc1ccc(F)cc1)SCc1cccc(F)c1
 : 3%	-8	-4.3%	u
70) CN1CCc2nc(SCCOc3ccccc3)c(C#N)cc2C1
 : u	-4	u	-22%
71) O=C(Nc1ccc2c(c1)OCO2)c1cnc(Cl)c(Cl)c1
 : -1%	x	7.8%	x
72) CC(C)Cn1nc(NC(=O)c2ccco2)c2cc3ccccc3nc21
 : u	-19	1.8%	17%
73) Cc1c(Cl)cccc1NC(=O)CC(Cc1ccccc1)C(=O)O (stereo unspecified)
 : -8%	x	-0.9%	-1%
74) CS(=O)(=O)NCC(c1cccnc1)N1CCN(c2ccccc2F)CC1 (stereo unspecified)
 : 9%	-4	0.6%	0%
75) CCCc1cc(=O)oc2cc(OCC(=O)Nc3cc(C)on3)ccc12
 : 8%	10	0.5%	2%
76) COc1ccc(NC(=O)Nc2nc3ccccc3s2)cc1
 : -3%	5	-0.1%	-58%
77) COC(CNC(=O)c1cc(-c2ccncc2)nc2ccc(S(=O)(=O)N3CCOCC3)cc12)OC
 : -3%	-2	-2.4%	-11%
78) CSc1ccc(CCNC(=O)c2ccc(CS(=O)Cc3ccc(Cl)cc3)o2)cc1 (stereo unspecified)
 : 14%	x	-1.0%	20%&21%
79) O=C(O)c1ccc(NC(=O)c2cn(-c3ccccc3)nc2-c2ccccc2)cc1
 : 4%	2	-8.0%	-35%
80) Fc1ccc(Br)cc1C1C=C(c2ccc(Br)s2)Nc2ncnn21 (stereo unspecified)
 : u	1	u	-7%
81) O=C(COC(=O)C1CC1)Nc1ccc(S(=O)(=O)N2CCOCC2)cc1
 : 26%	x	-5.4%	x
82) COc1ccc(/C=N/NC(=O)c2c(C)nnn2-c2nonc2N)cc1OC
 : 7%	-3	-0.1%	2%
83) C=CCC[C@H](Cc1ccc(F)cc1)C(=O)OC[C@H](C)NC(=O)[C@@H](CC=C)CC(=O)N[C@H](CO)Cc1ccccc1
 : -11%	x	-1.2%	x
84) O=C(NCCCn1ccnc1)/C(=C\c1ccc(Br)cc1)NC(=O)c1ccccc1
 : 1%	x	5.7%	-1%
85) Cn1c(=O)c2c(ncn2CC(=O)Nc2cccc(S(=O)(=O)Nc3ccccc3F)c2)n(C)c1=O
 : 13%	5	4.0%	6%
86) Nc1ccc(C=C2C=Cc3ccccc32)cc1
 : -2%	x	0.1%	x

The list is partial (hit frequency here may not be typical).
